# Compound activity: PubChem, National Center for Advancing Translational Sciences (NCATS)
# StopGo reporter: lowers the luciferase signal of an FMDV 2A StopGo reporter; human cells with a luciferase reporter of 2A StopGo recoding; control for the full effect not named in the record; Potency, µM (highest dose often 57.9 µM), without a hit: top-dose signal change, negative = less light; 410,000 compounds, 1.2% hits; AID 1159524; active = well fitted falling curve with a large enough effect; inconclusive = small, poorly fitted or top-dose-only effect; inactive = no such curve, though single readings can be large or run the other way; tested in HEK293T cells; also: % is scaled to controls: 0 for no effect and ±100 for the full control effect; nearly all actives have a fitted effect of over 45% in size; luciferase light after 4 h
# Cruzain noTriton: blocks cruzain activity in detergent-free assay; 200,000 compounds, 2.3% hits; Potency, µM, inactives show max response, negative = inhibition, actives largely listed as inhibitors; P25779; purified cruzain, Z-FR-AMC fluorescence, no detergent;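 also: plate controls were enzyme without inhibitor for no effect and buffer without enzyme for full effect; nearly all actives have a fitted effect of over 40% in size; top concentration of the series not given in the record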
# Target sequence (P25779 123-467 limits assumed): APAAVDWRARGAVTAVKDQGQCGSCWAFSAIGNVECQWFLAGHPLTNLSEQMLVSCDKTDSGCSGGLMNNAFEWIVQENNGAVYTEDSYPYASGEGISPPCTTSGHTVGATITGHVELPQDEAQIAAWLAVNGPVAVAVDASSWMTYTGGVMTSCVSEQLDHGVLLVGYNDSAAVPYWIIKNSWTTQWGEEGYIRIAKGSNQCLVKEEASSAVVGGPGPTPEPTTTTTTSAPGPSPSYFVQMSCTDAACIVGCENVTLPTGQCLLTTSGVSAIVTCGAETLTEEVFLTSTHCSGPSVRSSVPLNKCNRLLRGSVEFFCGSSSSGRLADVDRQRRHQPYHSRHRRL
#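 Purified cruzain at 1.5 nM, pre-incubated 15 min with compound at room temperature in 100 mM sodium acetate pH 5.5, 5 mM DTT, 0.00005% Triton X-100. Reaction started with 2 uM Z-FR-AMC; AMC fluorescence increase over 60 s gives rate.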
# SARS PLpro yeast: blocks SARS-CoV papain-like protease in a yeast assay; S. cerevisiae expressing SARS-CoV PLpro, growth rescue; control for the full effect not named in the record; Potency, µM (series often up to 32.9 µM), without a hit: at the top dose activity, positive = growth rescue; 330,000 compounds, 0.19% hits; AID 485353; active means well fitted rising curve with a large enough effect; inconclusive means small, poorly fitted or top-dose-only effect; inactive means no such curve, though single readings can be large or run the other way; also: 0% is about no effect; nearly all actives have a fitted effect of over 55% in size; growth read by luminescence after 48 h
# Cruzain Triton: cruzain (T. cruzi) inhibition with detergent. P25779. purified cruzain, Z-FR-AMC fluorescence, 0.01% Triton. Potency, µM, for the others: max response, negative = inhibition, hits mostly inhibitors. 200,000 compounds, 0.43% hits. AID 1478;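 also: plate controls were neutral wells for no effect and buffer without enzyme for full effect; nearly all actives have a fitted effect of over 40% in size; top concentration of the series not given in the record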
#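 Cruzain (1.5 nM) preincubated 15 min at RT with compound in 100 mM sodium acetate pH 5.5, 5 mM DTT, 0.01% Triton X-100. Reaction started with 2 uM Z-FR-AMC; AMC fluorescence (ex 360/em 450 nm) change over 60 s gave rate.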
# RE007 growth inh: less growth of the S. pombe RE007 Vpr strain; S. pombe RE007 Vpr strain, BacTiter-Glo ATP luminescence, 24 h; control for the full effect not named in the record; Potency, µM (highest dose often 92.2 µM), for the others: at the highest dose activity change, negative = less growth; 360,000 compounds, 0.21% hits; active = well fitted falling curve with a large enough effect; inconclusive = small, poorly fitted or top-dose-only effect; inactive = no such curve, though single readings can be large or run the other way;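 also: % is scaled to controls: 0 for no effect and ±100 for the full control effect; nearly all actives have a fitted effect of over 50% in size; the assay follows cell death caused by Vpr and the record does not say whether a fall means rescue or toxicity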
#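 Fission yeast RE007 carrying one integrated HIV-1 vpr copy, seeded at OD 0.01 in PMG+AL medium with 23 nL pinned compound. Grown 24 h at 30 degrees; viability read by BacTiter-Glo luminescence after 5 min.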
# MARV entry inh: Marburg virus entry inhibition; Marburg virus pseudotyped entry inhibition, cell reporter; control for the full effect not named in the record; about a third of the inactives were read at about 46 µM; Potency, µM (series often up to 37.8 µM), for inactives: at the highest dose activity change, negative = inhibition, actives largely listed as inhibitors; 300,000 compounds, 1.8% hits; AID 540276; active = well fitted inhibition curve with a large enough effect; inconclusive = small, poorly fitted or top-dose-only effect, or effect the other way; inactive = flat fitted curve, though single readings scatter; tested in HEK293 cells; about a fifth of its hits are not listed in these tables; also: % is scaled to controls: 0 for no effect and ±100 for the full control effect; luciferase read-out
# NS1 function inh: blocks influenza NS1 protein function; S. cerevisiae slowed by influenza A NS1, growth recovery by OD600; Potency, µM (doses to about 46.1 µM), for the others: top-dose activity, positive = more growth; 270,000 compounds, 0.4% hits; active means well fitted rising curve with a large enough effect; inconclusive means small, poorly fitted or top-dose-only effect; inactive means no such curve, though single readings can be large or run the other way; also: nearly all actives have a fitted effect of over 50% in size
#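 Read-out: OD600 growth recovery of NS1-expressing budding yeast. Cells grown overnight at 30C in -URA glucose medium, washed, resuspended and diluted 1:100 in 2% galactose assay medium, pH 6.0. Same strain lacking NS1 served as positive control.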
# LASV entry inh: Lassa virus entry inhibition | Potency, µM (doses to about 37.9 µM), without a hit: top-dose activity change, negative = inhibition, usual class: inhibitors | Lassa virus pseudotype entry inhibition, cell reporter; control for the full effect not named in the record | AID 540256 | 300,000 compounds, 1.2% hits; active means well fitted inhibition curve with a large enough effect; inconclusive means small, poorly fitted or top-dose-only effect, or effect the other way; inactive means flat fitted curve, though single readings scatter; tested in HEK293 cells; also: % is scaled to controls: 0 for no effect and ±100 for the full control effect; nearly all actives have a fitted effect of over 50% in size; luciferase read-out
# The depositor's hits bear a star; ? = inconclusive; · = not tested or not shown; & = joins results of further samples; [ ] = remark or other dose. Unless noted, calls follow the shape of the dose curve; as a rule, active = well fitted curve in the direction sought with a large enough effect; inconclusive = small, poorly fitted or top-dose-only effect, or another doubt; inactive = no such curve, though single readings can be large; an effect the other way counts as inactive or inconclusive. Potency is read from the fitted curve at half-maximal effect.
SMILES,StopGo reporter,Cruzain noTriton,SARS PLpro yeast,Cruzain Triton,RE007 growth inh,MARV entry inh,NS1 function inh,LASV entry inh
N#Cc1ccc(CSc2nnc(NC(=O)CCc3nc4ccccc4c(=O)[nH]3)s2)cc1,-15%,·,·,·,0%,0%,·,-5%
CCOC(=O)CSc1nnc2n(C3CCCCC3)c(=O)c3c4c(sc3n12)CCCC4,-5%,6%,1%,-0.5%,10%,5%&-2%,-2%,?
CCCNC(=O)COC(=O)/C=C/c1ccc(C)o1,8%,·,1%,·,2%,1%[46.1 µM],·,·
O=C(COc1cccc2ccccc12)NNC(=O)c1cccs1,33%[activator],-11%,-7%,-2.9%,-18%,22%,-38%,-8%
CCOC(=O)C(NC(=O)CC)(Nc1ccc(S(=O)(=O)Nc2cc(C)on2)cc1)C(F)(F)F (stereo not drawn),-8%,4%,15%,5.0%,2%,-6%&-6%,-7%,2%
Cc1ccc(C(=O)N/N=C\c2cc3c(cc2Br)OCO3)s1,4%,?,-3%,-3.3%,24%,?,0%,11µM*
CCOC(=O)C1CCCN(CC(=O)Nc2nc(-c3ccccc3)cs2)C1 (stereo not drawn),?,·,-2%,·,-11%,?,-54%,?
COc1ccc2cc(C(=O)C3CCCN(Cc4cccc(C)n4)C3)ccc2c1 (stereo not drawn),?,·,1%,·,-14%,22µM*,-3%,?
CCCOC(=O)C(C)n1cnc2scc(-c3ccc(C)cc3)c2c1=O (stereo not drawn),-4%,·,-8%,·,25%,·,-17%,·
CN(C(=O)C(=O)c1cn(CC(=O)N2CCCC2)c2ccccc12)C1CCCCC1,-4%,·,1%,·,1%,5%,-6%,3%
COc1ccccc1N1CCN(C(=O)CN2C(=O)COc3ccc(S(=O)(=O)N4CCC(C)CC4)cc32)CC1,-14%,?,·,-0.2%,·,-1%[46.1 µM],·,15%[46.1 µM]
Cn1c(C(=O)N2CCC(C(=O)N3CCN(Cc4ccc5c(c4)OCO5)CC3)CC2)cc2sccc21,?,8%,6%,-1.5%,-1%,0%,-21%,·
O=C1CC(SC2=NCCS2)C(=O)N1c1ccc(Cl)cc1 (stereo not drawn),8%,5%,-4%,1.0%,8%,-6%,1%,-4%
COC(=O)c1cc(C)nc2c1c(=O)nc(SCc1ccccc1F)n2C1CC1,-27%,7%,·,-1.9%,·,·,·,-15%[46.1 µM]
Cc1ccc(C(C(=O)NC2CCCC2)N(C(=O)Cc2cccs2)c2ccc(C)c(C)c2)o1 (stereo not drawn),·,7%,-14%,-12%,2%,?,-3%,-6%
COc1cc(C(=O)O)ccc1OCc1ccncc1,8%,·,1%,·,-6%,·,-5%,·
COCc1cc(=O)n2[nH]c(C)nc2n1,13%,3%,4%,-0.5%,-8%,1%,2%,3%
Cc1c(CCC(=O)O)c(=O)oc2cc(OCc3ccccc3Br)ccc12,-19%,·,2%,·,-5%,·,1%,·
O=C(Nc1ccncc1)c1c(F)cccc1F,-4%,-11%,3%,-0.6%,5%,3%,-2%,8%
COc1cccc(C(=O)n2ccc(-c3cccs3)n2)c1,16%,·,0%,·,6%,-3%,-1%,11%
CC(=O)Nc1nnc(SCc2cc(=O)c(OC(=O)c3ccccc3)co2)s1,-8%,·,0%,·,-22%,?,·,-1%
NC(=O)c1ccc(Sc2nnc(-c3cccs3)n2CC2CCCO2)c([N+](=O)[O-])c1 (stereo not drawn),2%,9%,2%,-0.2%,-17%,25%,3%,15%
c1ccc(-c2ccccc2OCCCN2CCCCC2)cc1,-25%,-8%,-5%,0.1%,-37%,?,-1%,16µM*
COC(=O)c1cnc(NNS(=O)(=O)c2ccc(Cl)cc2)nc1C(F)(F)F,2%,·,-1%,·,2%,0%[46.1 µM],-3%,2%
CN(CC(=O)Nc1cccc(F)c1)C(=O)CCc1nc2ccccc2c(=O)[nH]1,-13%,·,3%,·,-3%,5%,·,7%
CC(NC(=O)CCc1ccccc1)c1ccc2c(c1)OCO2 (stereo not drawn),8%,·,3%,·,-3%,·,-14%,·
COc1cccc(NC(=O)COC(=O)c2ccc3ccccc3n2)c1,33%[activator],·,-6%,·,5%,23%,·,?
CC(=O)Nc1ccc(S(=O)(=O)NNc2ccc([N+](=O)[O-])cc2)cc1,45%[activator],·,-13%,·,16%,·,-107%,·
Cc1ccc(NC(=O)c2cnccn2)cc1,48%[activator],·,-5%,·,-2%,?,·,·
Cn1c(N)c(C(=O)COC(=O)COc2ccc(C#N)cc2)c(=O)n(C)c1=O,-21%,·,1%,·,7%,·,0%,·

# Random excerpt: 2 records from the list
SMILES,StopGo reporter,Cruzain noTriton,SARS PLpro yeast,Cruzain Triton,RE007 growth inh,MARV entry inh,NS1 function inh,LASV entry inh
O=C1CC(SC2=NCCS2)C(=O)N1c1ccc(Cl)cc1 (stereo not drawn),8%,5%,-4%,1.0%,8%,-6%,1%,-4%
CC(NC(=O)CCc1ccccc1)c1ccc2c(c1)OCO2 (stereo not drawn),8%,·,3%,·,-3%,·,-14%,·

# Next compounds
SMILES,StopGo reporter,Cruzain noTriton,SARS PLpro yeast,Cruzain Triton,RE007 growth inh,MARV entry inh,NS1 function inh,LASV entry inh
Cn1ccnc1C(=O)c1ccc(Cl)c(S(=O)(=O)N2CCOCC2)c1,-3%,·,-1%,·,1%,1%[46.1 µM],-8%,7%
O=C(Cc1cccc2ccccc12)Nc1cccnc1,-11%,·,4%,·,-3%,5%,·,11%
O=C(COc1ccccc1[N+](=O)[O-])N1CCN(S(=O)(=O)c2ccccc2)CC1,-13%,·,3%,·,24%,-7%[46.1 µM],-5%,0%
CCCCc1ccc(-c2nc(-c3ccncc3)no2)cc1,-43%,-5%,3%,0.9%,-5%,26%[46.1 µM],-3%,1%
Clc1cccc(CNc2nc(-c3cccnc3)nc3ccccc23)c1,?,·,-60%,·,-3%,-29%[46.1 µM],-15%,-28%
COC(=O)C1=C(C)N(Cc2ccccc2)C(=NCc2cccc(C(F)(F)F)c2)N[C@H]1c1cccc(F)c1,40µM*,·,-17%&3%,·,2%,·,-44%&-25%,·
CCN(C(=O)Cn1cc(C(F)(F)F)ccc1=O)c1c(N)n(Cc2ccccc2)c(=O)[nH]c1=O,-8%,·,0%,·,4%,1%,·,0%
CCCCn1c(CN2CCN(C)CC2)nc2ccccc21,-16%,5%,9%,6.3%,6%,?,2%,10%
O=C(COc1cccc2ccccc12)Nc1nc2ccccc2[nH]1,0%,25µM*,22%,-13%,?,0%,-4%,6%
CCc1ccc(C(=O)COC(=O)C(CCSC)NC(=O)c2ccccc2)cc1 (stereo not drawn),28%,-12%,8%,-3.4%,-3%,2%,-5%,0%
COC(=O)c1ccc(NS(=O)(=O)c2cc(C)ccc2OC)cc1,45%[activator],-7%,1%,-6.7%,-1%,?,-3%,10%
COC(=O)c1cc(C)sc1NC(=O)CN1CCN(C(=O)c2ccco2)CC1,?,·,0%,·,6%,-7%,-17%,3%
CC1=C(C)CC(C(=O)NCC(=O)c2ccccc2)C(C(=O)O)C1 (stereo not drawn),·,-12%,2%,1.3%,5%,1%,2%,13%
O=C(NCc1ccccc1Cl)C(=O)NCC1OCCCN1S(=O)(=O)c1cccs1 (stereo not drawn),-4%,·,0%,·,-18%,-8%,0%,7%
C=CCn1c(O)c(N=NC(=S)Nc2ccccc2F)c2cc(S(=O)(=O)N3CCOCC3)ccc21,-23%,·,2%,·,5%,?,·,?
COc1cccc(N(CC(=O)NCCSc2ccc(Cl)cc2)S(C)(=O)=O)c1,-2%,16%,-5%,2.1%,-1%,1%,0%,-5%
Cc1cc(Nc2ccc(C)c(Cl)c2)n2nc(-c3ccccc3)nc2n1,-20%,-5%,·,0.7%,·,11%[46.1 µM],·,-4%[46.1 µM]
COc1ccc(-c2noc(N3CCC(C(=O)NCCCN4CCCC(C)C4)CC3)n2)cc1 (stereo not drawn),-15%,·,1%,·,-6%,·,-1%,·
CS(=O)(=O)Nc1ccccc1C(=O)O,9%,-3%,5%,-2.7%,9%,18%,7%,-1%
CCc1ccc(C2c3[nH]c4ccccc4c3CCN2C(=O)CNC(N)=O)cc1 (stereo not drawn),?,·,-1%,·,9%,-18%,4%,-23%
CCN(CC)C(=O)Oc1ccc2ccccc2c1Cl,41%[activator],3%,1%,-7.2%,-12%,?,-9%,?
COc1ccccc1OC(C)C(=O)Nc1ccc(S(=O)(=O)N2CCN(C)CC2)cc1 (stereo not drawn),-1%,·,-1%,·,-5%,18%,3%,2%
CCN(CC)c1ccc(C(=O)NNC(=O)CCNC(=O)c2ccccc2)cc1,11%,·,1%,·,-14%,3%,·,9%
CCCc1ccc2c(N)c(C#N)sc2n1,·,5%,-4%,3.6%,-16%,0%,-15%,-9%
COc1ccccc1-c1cc(C(=O)Nc2c(C)nn(Cc3ccc(Cl)cc3)c2C)no1,28µM*,-21%,·,-4.1%,·,10µM*,·,?
O=[N+]([O-])c1ccc(Cl)c(/C=N/n2c(C3CCCCC3)n[nH]c2=S)c1,5%,?,14%,4.0%,18%,0%,3%,-1%
Cc1ccc(C(=O)N2CCN(S(=O)(=O)c3ccccc3)CC2)s1,-29%,·,-7%,·,-2%,?,·,?
COc1ccc(C2C3=C(CC(C)(C)CC3=O)Oc3ncn4nc(-c5cccnc5)nc4c32)cc1 (stereo not drawn),-5%,·,·,·,21%,7%[46.1 µM],-67%,-16%
O=[N+]([O-])c1ccc(Cl)cc1N1CCCC1,-18%,·,0%,·,6%,10%[46.1 µM],3%,29%[46.1 µM]
Cc1c(Cl)cnc(NC(=O)COC(=O)c2ccc3ncsc3c2)c1Cl,-11%,-8%,-3%,-10%,-8%,13%,16%,10%
N#Cc1c(NC(=O)CSc2nc3c(c(C(F)(F)F)n2)CCc2ccccc2-3)sc2c1CCCC2,-2%,7.9µM*,3%,-3.3%,9%,-2%,9%,-4%
COc1ccc(CNC(=O)C2CCN(S(=O)(=O)c3cccc4cccnc34)CC2)cc1,·,-3%,4%,0.6%,·,2%,-18%,-3%
C/C(=N\Nc1c(F)c(F)c(Br)c(F)c1F)c1ccncc1,-7%,·,6%,·,?,0%,-94%,-2%
